# NS1 inh – inhibitors of influenza NS1 protein function | S. cerevisiae slowed by influenza A NS1, growth recovery by OD600 | Potency, µM (series often up to 46.1 µM), without a hit: at the highest dose activity, positive = more growth | hit rate 0.4% among 270,000; also: actives are rising curves; nearly all actives have a fitted effect of over 50% in size
#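 S. cerevisiae expressing influenza A NS1, grown in glucose, washed, then diluted 1:100 into pH 6.0 -URA galactose medium with 23 nl compound. Growth recovery read as OD600; NS1-free strain serves as control.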
# 2A StopGo – lowers the luciferase signal of an FMDV 2A StopGo reporter. human cells with a luciferase reporter of 2A StopGo recoding; control for the full effect not named in the record. Potency, µM (top dose mostly 57.9 µM), for inactives: top-dose signal change, negative = less light. hit rate 1.2% among 410,000. AID 1159524; active = well fitted falling curve with a large enough effect; inconclusive = small, poorly fitted or top-dose-only effect; inactive = no such curve, though single readings can be large or run the other way; tested in HEK293T cells; also: % is scaled to controls: 0 for no effect and ±100 for the full control effect; nearly all actives have a fitted effect of over 45% in size; luciferase light after 4 h
# Lassa entry inh – blocks Lassa virus binding to or entry into cells. Lassa virus pseudotype entry inhibition, cell reporter; control for the full effect not named in the record. Potency, µM (series often up to 37.9 µM), inactives show top-dose activity change, negative = inhibition, most hits filed as inhibitors. hit rate 1.2% among 300,000. AID 540256; active means well fitted inhibition curve with a large enough effect; inconclusive means small, poorly fitted or top-dose-only effect, or effect the other way; inactive means flat fitted curve, though single readings scatter; tested in HEK293 cells; also: % is scaled to controls: 0 for no effect and ±100 for the full control effect; nearly all actives have a fitted effect of over 50% in size; luciferase read-out
# SARS PLpro yeast – inhibitors of SARS-CoV papain-like protease in yeast. S. cerevisiae expressing SARS-CoV PLpro, growth rescue; control for the full effect not named in the record. Potency, µM (top dose mostly 32.9 µM), for the others: at the top dose activity, positive = growth rescue. hit rate 0.19% among 330,000. AID 485353; also: 0% is about no effect; nearly all actives have a fitted effect of over 55% in size; growth read by luminescence after 48 h
# Cruzain noTriton – inhibitors of Trypanosoma cruzi cruzain without detergent; P25779; purified cruzain, Z-FR-AMC fluorescence, no detergent; Potency, µM, inactives show max response, negative = inhibition, most hits filed as inhibitors; hit rate 2.3% among 200,000; active = well fitted curve in the direction sought with a large enough effect; inconclusive = small, poorly fitted or top-dose-only effect, or another doubt; inactive = no such curve, though single readings can be large; an effect the other way counts as inactive or inconclusive;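 also: plate controls were enzyme without inhibitor for no effect and buffer without enzyme for full effect; nearly all actives have a fitted effect of over 40% in size; top concentration of the series not given in the record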
# Target sequence (P25779 123-467 limits assumed): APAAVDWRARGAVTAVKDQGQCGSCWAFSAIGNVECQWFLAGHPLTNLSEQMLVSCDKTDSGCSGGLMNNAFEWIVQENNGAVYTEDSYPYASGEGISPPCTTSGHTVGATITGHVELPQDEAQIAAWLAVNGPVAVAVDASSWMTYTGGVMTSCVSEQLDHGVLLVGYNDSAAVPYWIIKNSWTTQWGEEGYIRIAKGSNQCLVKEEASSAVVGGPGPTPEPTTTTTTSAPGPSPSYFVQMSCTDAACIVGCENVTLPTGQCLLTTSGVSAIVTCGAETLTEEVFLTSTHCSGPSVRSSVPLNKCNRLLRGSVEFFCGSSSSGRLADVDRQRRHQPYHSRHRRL
#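 Purified cruzain at 1.5 nM, pre-incubated 15 min with compound at room temperature in 100 mM sodium acetate pH 5.5, 5 mM DTT, 0.00005% Triton X-100. Reaction started with 2 uM Z-FR-AMC; AMC fluorescence increase over 60 s gives rate.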
# RE007 growth inh – less growth of the S. pombe RE007 Vpr strain. S. pombe RE007 Vpr strain, BacTiter-Glo ATP luminescence, 24 h; control for the full effect not named in the record. Potency, µM (top dose mostly 92.2 µM), without a hit: at the highest dose activity change, negative = less growth. hit rate 0.21% among 360,000. AID 651644; active = well fitted falling curve with a large enough effect; inconclusive = small, poorly fitted or top-dose-only effect; inactive = no such curve, though single readings can be large or run the other way;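 also: % is scaled to controls: 0 for no effect and ±100 for the full control effect; nearly all actives have a fitted effect of over 50% in size; the assay follows cell death caused by Vpr and the record does not say whether a fall means rescue or toxicity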
#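 Fission yeast RE007 carrying one integrated HIV-1 vpr copy, seeded at OD 0.01 in PMG+AL medium with 23 nL pinned compound. Grown 24 h at 30 degrees; viability read by BacTiter-Glo luminescence after 5 min.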
# Cruzain inh Det – blocks cruzain activity in presence of Triton detergent | P25779 | Potency, µM, without a hit: max response, negative = inhibition, hits mostly inhibitors | AID 1478 | purified cruzain, Z-FR-AMC fluorescence, 0.01% Triton | hit rate 0.43% among 200,000; active = well fitted curve in the direction sought with a large enough effect; inconclusive = small, poorly fitted or top-dose-only effect, or another doubt; inactive = no such curve, though single readings can be large; an effect the other way counts as inactive or inconclusive;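 also: plate controls were neutral wells for no effect and buffer without enzyme for full effect; nearly all actives have a fitted effect of over 40% in size; top concentration of the series not given in the record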
#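 15 min RT preincubation of 1.5 nM cruzain with compound, then 2 uM Z-FR-AMC added; kinetic AMC fluorescence, 60 s delta. Triton X-100 0.01%, pH 5.5.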
# MARV entry inh – blocks Marburg virus binding to or entry into cells; Marburg virus pseudotyped entry inhibition, cell reporter; control for the full effect not named in the record; about a third of the inactives were read at about 46 µM; Potency, µM (series often up to 37.8 µM), for the others: at the top dose activity change, negative = inhibition, most hits filed as inhibitors; hit rate 1.8% among 300,000; active = well fitted inhibition curve with a large enough effect; inconclusive = small, poorly fitted or top-dose-only effect, or effect the other way; inactive = flat fitted curve, though single readings scatter; tested in HEK293 cells; about a fifth of its hits are not listed in these tables; also: % is scaled to controls: 0 for no effect and ±100 for the full control effect; luciferase read-out
# Starred values were filed as active, the others as inactive; ? = inconclusive; · = not tested or not shown; & = joins results of further samples; [ ] = remark or other dose. Unless noted, calls follow the shape of the dose curve; as a rule, active means well fitted rising curve with a large enough effect; inconclusive means small, poorly fitted or top-dose-only effect; inactive means no such curve, though single readings can be large or run the other way. Potency is read from the fitted curve at half-maximal effect.
SMILES,NS1 inh,2A StopGo,Lassa entry inh,SARS PLpro yeast,Cruzain noTriton,RE007 growth inh,Cruzain inh Det,MARV entry inh
O=C(Cc1ccc(Br)cc1)NCc1ccccc1,13%,33%[activator],-10%,-1%,·,-21%,·,?
COc1ccc2c(c1)C(=O)C(=O)N2CCS(=O)(=O)c1ccccc1,1%,-1%,·,-4%,·,4%,·,·
Cc1nnc(NC(=O)C2CCN(c3nnnn3-c3ccccc3)CC2)s1,-1%,-18%,-15%,23%,6%,-3%,1.9%,1%
COc1cccc(CN2CCN(Cc3ccco3)CC2)c1,-1%,7%,·,0%,·,-13%,·,·
COc1ccc(NC(=O)c2ccco2)cc1NC(=O)COc1ccc(C)c(C)c1,·,-22%,-27%[46.1 µM],·,?,·,-3.4%,-3%[46.1 µM]
CCc1ccc(NC(=O)CSc2nc3c([nH]c4ccccc43)c(=O)n2-c2cccc(OC)c2)cc1,·,-9%,-19%[46.1 µM],·,13µM*,·,-3.5%,·
CC(/C=C/c1ccccc1)=N/NC(=O)CCC(=O)Nc1ccccc1C,18%,-17%,1%,-21%,?,4%,5.0%,8%
Cc1ccccc1C(=O)Nc1ccnn1C1CCN(CC2CC=CCC2)CC1 (configuration not stated),5%,-6%,1%,0%,·,4%,·,9%
COc1ccc(NC(=O)c2cccc(N3C(=O)c4cccc([N+](=O)[O-])c4C3=O)c2)cc1,2%,-5%,·,-8%,·,-7%,·,·
CC(C)CCN(C(=O)CCSc1ccc(F)cc1)c1c(N)n(Cc2ccccc2)c(=O)[nH]c1=O,·,-20%,?,-7%,·,2%,·,-15%
Cc1ccc(NC(=O)N2CCC(C(=O)c3ccc(F)cc3)CC2)cc1,-21%,10%,2%[46.1 µM],-3%,·,6%,·,-29%[46.1 µM]
CCCCN1C(=O)C(O)(CC(=O)c2c(C)n[nH]c2C)c2cc(Br)ccc21 (configuration not stated),-4%,22%,-5%,4%,8%,-6%,0.1%,8%
CCCN(CCC)CCNC(=O)C1CCN(S(=O)(=O)c2cccc3nsnc23)CC1,0%,8%,·,-3%,·,0%,·,·
CC(C)c1nnc(NC(=O)CCC(=O)NCCc2ccccc2)s1,0%,9%,1%,0%,·,4%,·,10%
CCc1noc(C)c1C(=O)Nc1sc(C(=O)N(C)C)c(C)c1C(=O)OC,-1%,-4%,4%,0%,11%,-3%,-4.0%,?
O=C(NCCCO)c1ccc(CSc2nc3ccccc3[nH]2)cc1,1%,18%,2%[46.1 µM],0%,·,-9%,·,19%[46.1 µM]
O=C(CSc1nnnn1C1CCCCC1)NCc1ccccc1,9%,14%,10%,2%,-7%,5%,-3.1%,11%[46.1 µM]
S=c1[nH]nc(Cc2cccs2)n1-c1ccccc1Cl,-3%,-8%,?,-1%,·,10%,·,2%[46.1 µM]
OCC1N=C(c2ccccn2)OC1c1ccccc1 (configuration not stated),-1%,·,?,2%,-3%,3%,4.9%,1%
CCOC(=O)CNc1nc2ccccc2n2c(C)nnc12,-2%,3%&-3%,2%&-23%[46.1 µM],1%,?,8%,-2.9%,3%&3%[46.1 µM]
Cc1c(NC(=O)C(C)OC(=O)/C=C/c2ccccc2)c(=O)n(-c2ccccc2)n1C (configuration not stated),?,-8%,·,0%,·,0%,·,·
CCOc1ccc(NC(=O)Nc2ccc3c(c2)N(C)C(=O)CS3)cc1,-18%,?,·,1%,?,-4%,1.7%,·
COc1cccc(C(=O)NCCS(=O)(=O)NCCc2ccccc2)c1,·,50%[activator],8%,1%,·,-5%,·,?
O=C(COC(=O)CCCN1C(=O)c2ccccc2C1=O)Nc1cc(Cl)cc(Cl)c1,7%,-16%,0%,?,29%,-1%,-6.5%,-6%
COc1ccc(OC)c(NC(=O)CCn2cccc2)c1,1%,5%,-4%,13%,-5%,2%,1.1%,?
# Other compounds
SMILES,NS1 inh,2A StopGo,Lassa entry inh,SARS PLpro yeast,Cruzain noTriton,RE007 growth inh,Cruzain inh Det,MARV entry inh
O=C(Cn1cnnn1)OCC(=O)c1ccc(Cl)s1,?,18%,1%,5%,-8%,-9%[3.69 µM],-9.2%,-9%
O=C(NCc1ccccc1)N(Cc1cc2cc3c(cc2[nH]c1=O)OCCO3)CC1CCCO1 (configuration not stated),-3%,-14%,-17%,0%,-2%,-3%,-4.3%,-26%
CC(=O)N1CCN(S(=O)(=O)c2cccc(C(=O)N(C)Cc3ccc(C)o3)c2)CC1,·,9%,1%[46.1 µM],-1%,·,5%,·,7%
CCOc1ccc(/C(CC)=N/NC(=O)C2(C)CC2(Br)Br)cc1 (configuration not stated),16%,0%,?,-2%,2%,-6%,-8.4%,?
CCN(CC)S(=O)(=O)c1cc(NS(=O)(=O)c2cccc(Cl)c2Cl)ccc1C,19%,-5%,?,-17%,-10%,21%,-6.0%,-3%
Cc1ccc(C2C3=C(CC(C)(C)CC3=O)NC3=C2C(=O)c2ccccc23)cc1 (configuration not stated),?,-25%,?,12%,0%,1%,-3.5%,?
COc1ccc(OC)c(CN(CCN2CCOCC2)C(=O)Nc2cccc(Cl)c2)c1,-1%,-6%,-1%,10%,-1%,-4%,1.5%,-13%
Brc1cccc(-c2nnc(SCc3ccon3)n2-c2ccccc2)c1,-132%,?,·,-1%,0%,-5%,-1.3%,·
C/C=C/c1ccc(OCCN2C(=O)NC(C)(C)C2=O)c(OC)c1,5%,·,17%,·,4%,-1%,3.7%,1%
CC(C)CNc1nc(Oc2ccc(=O)[nH]n2)nc(N(C)C)n1,-5%,14%,-6%,9%,-7%,11%,0.5%,15%
C/C(=N\N=C\c1ccc(N(C)C)cc1)c1cccc([N+](=O)[O-])c1,-13%,13%,2%,-18%,-8%,4%,-7.9%,?
CCOC(=O)c1nn(-c2ccc(OCC)cc2)c2nc(CC(C)C)c(C#N)c(=O)n12,11%,10%,-17%,7%,28%,15%,?,12%
CC1CCCC(C)N1CC(O)COc1c(F)cc(Br)cc1F (configuration not stated),4%,-2%,-15%,7%,·,2%,·,?
COc1ccccc1-c1c(C)oc2c(CN3CCCCC3C)c(O)ccc2c1=O (configuration not stated),-4%,4%,?,-3%,·,-3%,·,1%
COc1ccc(C(=O)COC(=O)CCN2C(=O)C3C4CC(C(Br)C4Br)C3C2=O)cc1 (configuration not stated),-2%,-21%,-4%,1%,?,-19%,-2.6%,7%
CCc1nnc(NS(=O)(=O)c2ccc(NC(=O)C(c3ccccc3)c3ccccc3)cc2)s1,·,0%,-2%[46.1 µM],·,·,-3%,·,0%[46.1 µM]
COc1ccc(C(=O)NCC(=O)N2CCN(C(=O)c3ccco3)CC2)cc1[N+](=O)[O-],·,?,-20%[46.1 µM],1%,·,-10%,·,5%[46.1 µM]
O=C(NCc1ccccc1Br)C1CCCO1 (configuration not stated),14%,-10%,·,14%,·,-6%,·,·
C[C@H](NC(=O)OC(C)(C)C)c1nnc(SCC(=O)c2ccc(Cl)cc2)o1,-6%,?,-19%,0%,0%,7%,-0.4%,-2%
O=C(O)C1C2C=CC(C2)C1C(=O)NCc1cccc(Cl)c1 (configuration not stated),-2%,-8%,-7%,2%,·,-12%,·,?
O=C(Nc1nc(-c2cccnc2)cs1)c1ccccc1Cl,1%,9%,2%,0%,·,34%,·,-20%[46.1 µM]
O=C(c1cc2cc(Cl)ccc2[nH]1)N1CCCCC1,-2%,75%[activator],·,-2%,·,-5%,·,·
Cn1c(Cn2c(=O)sc3ccccc32)nnc1SCc1cccnc1,1%,5%,·,4%,1%,19%,1.8%,·
CC(=NO)c1ccc2c(c1)Cc1cc([N+](=O)[O-])ccc1-2,·,18%,-14%[46.1 µM],·,·,4%,·,-24%
O=C(CN1CCOCC1)NCC(=O)Nc1ccc(Br)cc1C(=O)c1ccccc1,-8%,-6%,-6%,-4%,0%,-12%,1.2%,0%
# (next part)
SMILES,NS1 inh,2A StopGo,Lassa entry inh,SARS PLpro yeast,Cruzain noTriton,RE007 growth inh,Cruzain inh Det,MARV entry inh
O=C(CSc1nnc(-c2ccc(Cl)cc2)n1-c1ccc(Cl)cc1)N/N=C/c1ccco1,15%,?,?,-14%,17%,-13%,-3.6%,?
CC(OC(=O)c1ccco1)C(=O)NC1CCCC1 (configuration not stated),-5%,11%,20%[46.1 µM],1%,·,4%,·,-11%[46.1 µM]
Cc1ccc(C(=O)NNC(=S)NC(=O)c2ccccc2)cc1,·,-8%,?,·,·,-16%,·,-10%
CCc1ccc(OCC(=O)NNC(=O)Cc2c(F)cccc2Cl)cc1,·,-6%,0%,1%,·,4%,·,20%
Cc1sc(NC(=O)CSc2nnc(-c3ccc(F)cc3)o2)c(C#N)c1C,5%,28%,-17%,-1%,-2%,-7%,-1.2%,-17%
CCN(CC)c1ccc(NC(=O)c2ccc(Br)o2)cc1,-21%,40%[activator],-3%,0%,-9%,-4%,-6.3%,-3%
O=C(Nc1ccc(Cl)c(S(=O)(=O)N2CCOCC2)c1)c1cn2ccccc2n1,·,20µM*,?,0%,·,-6%,·,31%[46.1 µM]
CC(C)c1ccc(NC(=O)c2cc(Br)ccc2Br)cc1,-3%,11%,·,1%,·,-4%,·,·
CC1CC(C)CN(C(=O)c2ccc(C(=O)c3ccccc3)cc2)C1 (configuration not stated),·,-12%,-9%,0%,·,26%,·,7%
CC(C)(C)c1ccc(C(=O)NCCc2csc(-c3ccc(Cl)cc3)n2)cc1,·,-13%,-2%[46.1 µM],·,10%,·,-9.1%,·
CC(C)(C)C(=O)NC1(C(F)(F)F)NC(=O)N(c2ccccc2F)C1=O (configuration not stated),2%,-7%,?,0%,·,-12%,·,-23%
Cc1ccc2c(N)c(C(=O)N(c3ccccc3)c3ccccc3)sc2n1,10%,?,?,-7%,-2%,4%,-8.6%,?
Cc1nc2ccc(S(=O)(=O)NCC(=O)N3CCCC(C)C3)cc2s1 (configuration not stated),8%,1%,2%,3%,17%,-7%,13%,-6%

# Assay outcomes from PubChem.
